PrP UTR inh – suppresses PrP 5' UTR mRNA reporter expression. cell-based PrP 5' UTR mRNA reporter, plate reader. inhibition, % (test concentration not listed). actives 0.35% (n = 340,000);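 active = every replicate at 50% or more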;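 note: 0 = median of the neutral control wells; tested in H4 reporter cells; numbers are from one replicate; inactives centre near -14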
BJeLR viability – BJeLR cell viability loss; BJeLR (HRASV12) viability, CellTiter-Glo ATP luminescence, 48 h; reference of the scale not given here; inhibition, % (no concentration beside the values); actives 0.17% (n = 300,000); AID 1554;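 active = replicate mean above 50%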;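 note: 50 nL library stock added to about 25 µL; numbers are from one replicate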
RN4220 kill – kills Staphylococcus aureus RN4220. S. aureus RN4220 growth, OD600, 16 h. inhibition, % (test concentration not listed). actives 0.33% (n = 330,000);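 active = z-score of -3 or lower and OD600 up to 0.18 on both plates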;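 note: plate controls were untreated cells for no effect and reference antibiotic for full effect; stock transfer was 100 nL into about 80 µL; one replicate is shown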
Autofluor counter – counter-screen for toxin protease inhibitors: compound fluorescence; compound autofluorescence counterscreen, microsphere flow cytometry; hits give high values; actives 3.1% (n = 360,000); fluorescence intensity (concentration not given with the values);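 active = at least 3 SD above the mean of all compounds, about 16000 in these data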;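 note: 100 nL of 1 mM stock went into each well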
Mtb hypoxia rep – inhibitors of hypoxia-regulated fluorescent reporter in Mycobacterium tuberculosis. M. tuberculosis hypoxia-regulated fluorescent reporter, fluorescence. fluorescence inhibition, % (no concentration beside the values). actives 0.1% (n = 300,000). AID 1159583;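 active = 35 to 45% if threefold the growth effect, above 45% if 1.5-fold the growth effect; inactive = the rest, general growth blockers included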;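 note: wells of about 50 µL received 100 nL stock; 0% = vehicle wells and 100% = reference inhibitor wells; whole bacteria with a GFP reporter of the hypoxia response; strong numbers were not always called active; many hits fall short of the cut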
Sa ugtP lethal – compounds lethal to S. aureus RN4220 ugtP deletion mutant; growth inhibition, % (concentration not given with the values); actives 0.54% (n = 330,000); OD600 growth, 16 h; some inactives read as strong as hits;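 active = z-score under -3 and OD600 up to 0.15 on both plates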;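 note: plate controls were untreated wells for no effect and antibiotic for full effect; wells of about 80 µL received 100 nL stock; the first replicate is given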
Mtb hypoxia rep growth – recorded beside Mtb hypoxia rep, whose call it bears; growth inhibition, %; measured here: M. tuberculosis growth (absorbance);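 0% = vehicle and 100% = reference antibiotic; read after six days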
The depositor's hits bear a star; x = no result given.

SMILES	PrP UTR inh	BJeLR viability	RN4220 kill	Autofluor counter	Mtb hypoxia rep	Mtb hypoxia rep growth	Sa ugtP lethal
Cc1cccn2c(=O)c3cc(C(=O)NC4CCS(=O)(=O)C4)n(Cc4ccccc4)c3nc12 (centres undefined)	-27	4	3.1	5785	8	2	-3
CC(C)NC(=O)c1nc2c(nnn2Cc2cccc(Cl)c2)c(=O)[nH]1	-19	4	13	3400	-6	0	-2
CCNC(=O)NC(=O)C(C)OC(=O)c1oc2ccccc2c1CSC1CCCCC1 (centres undefined)	-20	-5	4.0	2005	9	-6	6
COc1cc(OC)c(NC(=O)CS(=O)(=O)Cc2nc(-c3ccc(C)cc3)oc2C)cc1Cl	-18	-5	x	5710	x	x	x
Cc1ccc(CNC(=O)C2CCN(c3nnc(N4CCCC4=O)s3)CC2)cc1	69*	-15	1.4	4177	-2	-2	5
COc1cccc(NC(=O)CSc2nnc(Cc3ccc(OC)c(OC)c3)o2)c1	-12	2	1.3	3545	12	2	2
Cc1ccc(Cl)cc1-c1ccc(C=Nn2cnnc2)o1	x	x	2.1	x	-2	-2	5
COc1ccc(C2CC(=O)C3=C(C2)Nc2ccccc2NC3c2coc3ccccc3c2=O)cc1OC (centres undefined)	1	x	2.2	2380	-3	3	-4
Cc1ccc(S(=O)(=O)NCCN2CCOCC2)c(C)c1	-2	-6	7.8	4148	-2	1	8
O=C(Cc1n[nH]c(=O)[nH]c1=O)N/N=C/c1c(O)ccc2ccccc12	-20	-3	x	2711	x	x	x
Cc1nn2cc(-c3ncc(C(F)(F)F)cc3Cl)cnc2c1Br	-1	11	7.7	3283	8	3	18
O=C(NCCc1ccccn1)c1cc(-c2ccc(Cl)cc2)nc2ccccc12	3	1	x	2344	x	x	x
COc1ccc(C(C)=O)cc1COC(=O)CNC(=O)C1CCCCC1	-21	x	0.7	4531	3	8	6
NS(=O)(=O)c1ccc(NC(=O)/C=C/c2ccccc2[N+](=O)[O-])cc1	-14	-1	-1.1	4825	1	8	10
COc1ccc(C(=O)Nc2ccc(SC(F)F)cc2)cc1	-108	-3	7.0	2074	9	5	27
COc1cc(OC)cc(-n2nnnc2SCC(=O)NCc2cccs2)c1	37	6	1.3	3175	5	5	-3
CC(CC(=O)NC(C)(C)C)=NNC(=O)c1ccccc1N	x	x	3.4	x	-6	-4	9
Cc1cc(C(=O)OCC(=O)NC2CCS(=O)(=O)C2)c(C)n1-c1ccccc1 (centres undefined)	-26	-1	1.4	8492	-5	-1	-1
CC1CCc2nc(NC(=O)C3COc4ccccc4O3)sc2C1 (centres undefined)	46	-5	-27	4687	9	19	-4
O=C(Nc1ccc(F)cc1)Nc1nnc(-c2ccco2)s1	-80	3	-1.1	5043	-17	1	-8
Cc1cccc(NC(=O)CSc2nc(N)c(NC(=O)c3cccs3)c(=O)[nH]2)c1	-8	7	5.8	4354	1	4	3
CC(O)CNc1nc2c(c(=O)n(C)c(=O)n2C)n1C/C=C/c1ccccc1 (centres undefined)	-12	13	3.9	9529	9	5	2
CCOC(=O)NCc1ccc(S(=O)(=O)Nc2ccccc2C)cc1	-23	6	8.2	8734	3	15	-8
Brc1ccc(-c2nn[nH]n2)cc1	-5	-2	0.6	4267	7	15	2
CC(C)(C)NC(=O)Nc1cccc(Cl)c1Cl	-4	0	0.9	2431	-9	8	-6

One compound at a time (already shown). Screens in order: PrP UTR inh, BJeLR viability, RN4220 kill, Autofluor counter, Mtb hypoxia rep, Mtb hypoxia rep growth, Sa ugtP lethal
`O=C(NCCc1ccccn1)c1cc(-c2ccc(Cl)cc2)nc2ccccc12` in the list: 3, 1, x, 2344, x, x, x
`O=C(Cc1n[nH]c(=O)[nH]c1=O)N/N=C/c1c(O)ccc2ccccc12` in the list: -20, -3, x, 2711, x, x, x

The listing picks up, repeating the 2 entries before the break.
SMILES	PrP UTR inh	BJeLR viability	RN4220 kill	Autofluor counter	Mtb hypoxia rep	Mtb hypoxia rep growth	Sa ugtP lethal
Brc1ccc(-c2nn[nH]n2)cc1	-5	-2	0.6	4267	7	15	2
CC(C)(C)NC(=O)Nc1cccc(Cl)c1Cl	-4	0	0.9	2431	-9	8	-6
Cc1cc2oc(C(=O)N(Cc3ccco3)C3CCS(=O)(=O)C3)cc(=O)c2cc1Cl (centres undefined)	-24	8	-1.3	23579*	7	14	1
CCc1ccc(CN(C)C(=O)c2cc(S(=O)(=O)N3CCN(CC)CC3)ccc2Cl)cc1	-16	10	2.4	4402	-4	0	4
Cc1ccc(S(=O)(=O)N=C(c2ccccc2)N2CCOCC2)cc1	x	x	6.7	x	10	-1	9
CC(=O)C1=C(C)N(Cc2ccccc2)C(=O)NC1c1cccc(F)c1 (centres undefined)	x	x	6.1	x	5	4	11
CN(CC(=O)Nc1ccccc1Cl)C(=O)CN1C(=O)C2CCCCC2C1=O (centres undefined)	-6	-5	-0.1	4801	-1	-1	0
O=C(CSc1nnnn1-c1ccc(Cl)cc1)Nc1cccnc1Cl	-18	4	1.3	11126	0	-6	0
O=S(=O)(NCCc1cn2ccccc2n1)c1cccs1	21	6	6.2	4388	3	4	7
Cc1ccc(CNC(=O)CSc2c3c(nc4ccc(Cl)cc24)CCCC3)o1	-12	0	-4.4	4197	12	11	-3
COc1ccc(-c2cc(C(F)(F)F)c(C#N)c(SCC(=O)Nc3ccc(C)cc3)n2)cc1	-38	-12	-0.6	3173	-10	4	-2
COc1cccc(N2CCN(C(=O)c3ccc(N4C(=O)NC5CC4(C)Oc4ccccc45)cc3)CC2)c1 (centres undefined)	-4	1	2.8	2423	0	5	4
COC(=O)C1=C(CSc2nncn2C)NC(=O)NC1c1cc(C)ccc1C (centres undefined)	-3	-2	4.4	2351	x	x	1
CCC(C)OC(=O)c1[nH]c2c(c1C)C(=O)CC(c1ccc(N(C)C)cc1)C2 (centres undefined)	-83	-3	-0.6	6340	x	x	1
O=C(c1cc2ccccc2o1)N1CCC(N2CCC(C(=O)N3CCCC3)CC2)CC1	-7	2	3.6	5655	5	-13	8
NC(=O)c1ccc(-n2nnnc2SCc2ccccc2)cc1	0	2	2.0	4087	16	14	1
CN(C)S(=O)(=O)c1cccc(C(=O)Nc2cc3c(cc2C(=O)O)OCCCO3)c1	-5	-3	2.5	3591	-16	-1	3
CCCc1nc2nc(C)c(NS(=O)(=O)c3ccc([N+](=O)[O-])cc3)c(=O)n2[nH]1	8	-6	-1.7	3198	-2	5	1
COc1ccc(C2(C)NC(=O)N(CC(=O)Nc3ccc(C)cc3Br)C2=O)cc1OC (centres undefined)	-20	7	-0.8	6146	1	-1	-6
Cn1c(=O)[nH]c(=O)c2c1nc(CN1CCN(c3ccccc3F)CC1)n2CC(N)=O	2	5	6.0	5953	2	4	-5
O=C(CCN1CCN(c2ccccc2)CC1)Nc1ccccc1	4	0	-4.0	3716	-12	6	-1
CCNC(=S)SCCOc1ccccc1C	10	-4	4.1	2028	5	2	7
Cc1[nH]c2ccccc2c1CCNCc1cccnc1	-10	-5	2.0	4109	0	-1	-1
Cc1cc(NC(=O)C(=O)NCCN2CCN(C(=O)c3cccs3)CC2)ccc1Br	10	-2	3.9	2918	x	x	7
O=C(c1cc2ccccn2n1)N1CCC2(CC1)OCCO2	-25	-3	5.7	10122	1	6	-3
CN(C)c1nc(N)nc(-c2nc3ccccc3s2)n1	-58	-6	5.5	11388	16	10	2
CSCC[C@H](NC(=O)N1CCn2c1nc1ccccc12)C(=O)N1CCCCC1	1	6	-1.2	6433	14	6	0

The final four entries of the section above are carried over, then new ones follow:
SMILES	PrP UTR inh	BJeLR viability	RN4220 kill	Autofluor counter	Mtb hypoxia rep	Mtb hypoxia rep growth	Sa ugtP lethal
Cc1cc(NC(=O)C(=O)NCCN2CCN(C(=O)c3cccs3)CC2)ccc1Br	10	-2	3.9	2918	x	x	7
O=C(c1cc2ccccn2n1)N1CCC2(CC1)OCCO2	-25	-3	5.7	10122	1	6	-3
CN(C)c1nc(N)nc(-c2nc3ccccc3s2)n1	-58	-6	5.5	11388	16	10	2
CSCC[C@H](NC(=O)N1CCn2c1nc1ccccc12)C(=O)N1CCCCC1	1	6	-1.2	6433	14	6	0
CC(=O)Nc1cccc(NC(=O)CSc2nnnn2C(C)C)c1	-3	1	1.0	3779	x	x	6
COc1ccc(NS(=O)(=O)c2cc(NC(=O)CCc3ccccc3)ccc2N2CCOCC2)cc1	-13	x	1.9	3493	4	2	13
Fc1ccccc1CN1CCN(c2ccc(Cl)cc2)CC1	-12	1	7.1	3755	2	2	35
Cn1cc(S(=O)(=O)N2CCCC2)cc1C(=O)NCc1ccc(F)cc1	4	-9	6.6	4619	5	4	6
Cc1cc(CNC(=O)CC2C(=O)NCCN2CC(c2ccccc2)c2ccccc2)on1 (centres undefined)	-21	2	2.0	2777	8	1	0
O=C(NN=Cc1cc2c(cc1[N+](=O)[O-])OCO2)c1ccccn1	x	x	2.2	x	-6	-6	-6
O=C(O)[C@H]1CCCN1C(=O)c1ccccc1N1C(=O)[C@@H]2Cc3c([nH]c4ccccc34)C(c3cccc(Cl)c3)N2C1=O (some centres undefined)	-14	3	-1.6	5755	x	x	2
CC(C)OC(=O)c1ccc(N2CCN(c3ccc(F)cc3)CC2)nc1	-10	7	-4.6	3898	13	6	-15
COCCCNCCOCCOc1ccccc1-c1ccccc1	-4	-9	9.7	2540	7	4	5
CCOC(=O)N1CCN(C(=S)Nc2ccc(C)cc2)CC1	-14	-2	1.5	1952	2	2	9
CCc1cc(=O)oc2c(C)c(OCC(=O)N3C[C@H]4C[C@@H](C3)c3cccc(=O)n3C4)ccc12	-12	-7	5.1	5023	x	x	11
Cc1ccc(OCC(O)C(C)NC(C)C)c2c1CCC2 (centres undefined)	x	x	3.4	x	19	5	-3
CCOc1cccc(C(=O)NC(=S)Nc2cccc(C)c2)c1	-6	-9	2.1	2632	12	4	-6
O=C(NCc1csc(-c2cccs2)n1)Nc1ccc(F)cc1F	-21	-14	0.2	3645	-5	-2	0
Cc1cc(Nc2c(C)cccc2C)n2nc(C)nc2n1	-33	0	1.0	6467	x	x	2
C=CCOc1c(Br)cc(/C=C(\C#N)C(N)=O)cc1OC	-14	11	1.8	3752	-2	4	4
Cc1c(C(=O)N(Cc2cccc(Br)c2)C2CCS(=O)(=O)C2)oc2ccccc12 (centres undefined)	-14	10	2.1	6170	10	-2	-6
CC1=NN(C(=O)c2nn(C)cc2Br)C(O)(C(F)(F)F)C1 (centres undefined)	-14	-9	9.7	2529	-6	-8	-2
